Compound activity (PubChem BioAssay)
SARS PLpro yeast – SARS-CoV PLP inhibition in yeast | S. cerevisiae expressing SARS-CoV PLpro, growth rescue; control for the full effect not named in the record | Potency, µM (titrated, usually from 32.9 µM), inactives show top-dose activity, positive = growth rescue | 330,000 compounds, 0.19% hits | AID 485353; active means well fitted rising curve with a large enough effect; inconclusive means small, poorly fitted or top-dose-only effect; inactive means no such curve, though single readings can be large or run the other way; also: 0% is about no effect; nearly all actives have a fitted effect of over 55% in size; growth read by luminescence after 48 h
NS1 function inh – influenza NS1 inhibition; AID 2326; S. cerevisiae slowed by influenza A NS1, growth recovery by OD600; 270,000 compounds, 0.4% hits; Potency, µM (titrated, usually from 46.1 µM), without a hit: at the highest dose activity, positive = more growth; active means well fitted rising curve with a large enough effect; inconclusive means small, poorly fitted or top-dose-only effect; inactive means no such curve, though single readings can be large or run the other way; also: nearly all actives have a fitted effect of over 50% in size
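Growth recovery, yeast-based: influenza A NS1 expressed in S. cerevisiae causes slow growth, and suppressors are detected by OD600. The parent strain without NS1 is used as positive control.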
Cruzain Triton – inhibitors of Trypanosoma cruzi cruzain with detergent | purified cruzain, Z-FR-AMC fluorescence, 0.01% Triton | Potency, µM, for the others: max response, negative = inhibition, hits mostly inhibitors | 200,000 compounds, 0.43% hits | AID 1478;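 also: plate controls were neutral wells for no effect and buffer without enzyme for full effect; nearly all actives have a fitted effect of over 40% in size; top concentration of the series not given in the record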
Target sequence (P25779 123-467 limits assumed): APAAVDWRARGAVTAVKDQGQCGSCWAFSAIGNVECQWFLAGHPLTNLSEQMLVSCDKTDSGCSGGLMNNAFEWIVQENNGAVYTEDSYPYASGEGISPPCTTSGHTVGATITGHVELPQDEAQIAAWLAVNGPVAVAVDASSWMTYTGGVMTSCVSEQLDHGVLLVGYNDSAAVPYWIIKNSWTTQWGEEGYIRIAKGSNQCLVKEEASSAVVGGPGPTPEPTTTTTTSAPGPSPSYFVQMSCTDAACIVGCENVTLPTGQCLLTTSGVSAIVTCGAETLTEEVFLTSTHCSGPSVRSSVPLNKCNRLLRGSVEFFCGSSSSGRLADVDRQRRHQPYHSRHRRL
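Compounds were screened in titration against cruzain (1.5 nM) with 0.01% Triton X-100 to counter colloidal aggregation. Activity was the AMC fluorescence increase over 60 s after adding 2 uM Z-FR-AMC at pH 5.5.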
MARV entry inh – inhibitors of Marburg virus binding or cell entry; Marburg virus pseudotyped entry inhibition, cell reporter; control for the full effect not named in the record; about a third of the inactives were read at about 46 µM; Potency, µM (series often up to 37.8 µM), for the others: top-dose activity change, negative = inhibition, usual class: inhibitors; 300,000 compounds, 1.8% hits; AID 540276; active = well fitted inhibition curve with a large enough effect; inconclusive = small, poorly fitted or top-dose-only effect, or effect the other way; inactive = flat fitted curve, though single readings scatter; tested in HEK293 cells; about a fifth of its hits are not listed in these tables; also: % is scaled to controls: 0 for no effect and ±100 for the full control effect; luciferase read-out
Cruzain noTriton – cruzain (T. cruzi) inhibition without detergent. Potency, µM, without a hit: max response, negative = inhibition, usual class: inhibitors. purified cruzain, Z-FR-AMC fluorescence, no detergent. 200,000 compounds, 2.3% hits;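 also: plate controls were enzyme without inhibitor for no effect and buffer without enzyme for full effect; nearly all actives have a fitted effect of over 40% in size; top concentration of the series not given in the record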
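Detergent-free condition (0.00005% Triton X-100) in acetate buffer pH 5.5 with DTT. 1.5 nM enzyme and compound were pre-mixed 15 min, then 2 uM Z-FR-AMC substrate added; reaction progress from fluorescence change between first and third reads (60 s).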
LASV entry inh – blocks Lassa virus binding to or entry into cells; Lassa virus pseudotype entry inhibition, cell reporter; control for the full effect not named in the record; Potency, µM (top dose mostly 37.9 µM), inactives show at the highest dose activity change, negative = inhibition, actives largely listed as inhibitors; 300,000 compounds, 1.2% hits; AID 540256; active means well fitted inhibition curve with a large enough effect; inconclusive means small, poorly fitted or top-dose-only effect, or effect the other way; inactive means flat fitted curve, though single readings scatter; tested in HEK293 cells; also: % is scaled to controls: 0 for no effect and ±100 for the full control effect; nearly all actives have a fitted effect of over 50% in size; luciferase read-out
2A StopGo – FMDV 2A StopGo reporter, luciferase signal; 410,000 compounds, 1.2% hits; Potency, µM (top dose mostly 57.9 µM), inactives show top-dose signal change, negative = less light; human cells with a luciferase reporter of 2A StopGo recoding; control for the full effect not named in the record; active = well fitted falling curve with a large enough effect; inconclusive = small, poorly fitted or top-dose-only effect; inactive = no such curve, though single readings can be large or run the other way; tested in HEK293T cells; also: % is scaled to controls: 0 for no effect and ±100 for the full control effect; nearly all actives have a fitted effect of over 45% in size; luciferase light after 4 h
RE007 growth inh – less growth of the S. pombe RE007 Vpr strain. S. pombe RE007 Vpr strain, BacTiter-Glo ATP luminescence, 24 h; control for the full effect not named in the record. Potency, µM (titrated, usually from 92.2 µM), for the others: top-dose activity change, negative = less growth. 360,000 compounds, 0.21% hits. AID 651644; active = well fitted falling curve with a large enough effect; inconclusive = small, poorly fitted or top-dose-only effect; inactive = no such curve, though single readings can be large or run the other way;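 also: % is scaled to controls: 0 for no effect and ±100 for the full control effect; nearly all actives have a fitted effect of over 50% in size; the assay follows cell death caused by Vpr and the record does not say whether a fall means rescue or toxicity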
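Fission yeast strain RE007, carrying one chromosomally integrated HIV-1 vpr copy, was seeded at OD 0.01 in PMG+AL medium with 23 nL pinned compound. After 24 h at 30 °C and 99% humidity, viability was read by BacTiter-Glo luminescence.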
Starred values were filed as active, the others as inactive; ? = inconclusive; · = no result given; [ ] = another dose, or the depositor's remark. Unless noted, calls follow the shape of the dose curve; as a rule, active = well fitted curve in the direction sought with a large enough effect; inconclusive = small, poorly fitted or top-dose-only effect, or another doubt; inactive = no such curve, though single readings can be large; an effect the other way counts as inactive or inconclusive. Potency is read from the fitted curve at half-maximal effect.

SMILES | SARS PLpro yeast | NS1 function inh | Cruzain Triton | MARV entry inh | Cruzain noTriton | LASV entry inh | 2A StopGo | RE007 growth inh
CCC1CCCCN1C(=O)Cn1c(=O)oc2cc(S(=O)(=O)N3CCCCC3)ccc21 (configuration not stated) | · | · | 1.4% | -2.5%[46.1 µM] | 3.7% | · | 3.9% | ·
Cc1ccc(N(C(=O)c2csnn2)C(C(=O)NC2CCCCC2)c2cccnc2)cc1 (configuration not stated) | -0.6% | 2.2% | · | 9.5%[46.1 µM] | · | -11.6%[46.1 µM] | 7.2% | 20.6%
Cc1ccccc1C(C(=O)NC1CCCC1)N(C(=O)Cc1cccs1)c1ccc2c(c1)OCCO2 (configuration not stated) | -3.8% | ? | 9.7% | ? | -8.1% | ? | · | 1.8%
CCCCS(=O)(=O)C1CCS(=O)(=O)C1 (configuration not stated) | -1.6% | 0.4% | -0.4% | -12.4%[46.1 µM] | 15.7% | 0.4% | -16.7% | 19.0%
COCCN1CCn2c(nc3cc(NC(=O)c4ccc(OC)cc4)ccc32)C1 | ? | 12.6µM* | -8.6% | 2.6% | -9.4% | 1.4% | -12.0% | 0.1%
Cc1ccc(CNC(=O)CN2C(=O)CCn3nc(-c4ccccc4)cc32)cc1 | · | · | -2.7% | · | 5.5% | 11.7%[46.1 µM] | 3.1% | ·
Cc1ccc(CNC(=O)C2CCCN(S(=O)(=O)c3c(C)noc3C)C2)cc1 (configuration not stated) | -2.4% | 7.0% | 4.0% | -25.4% | -29.9% | ? | · | 3.7%
O=C1CC(N2CCN(c3ccc(Cl)cc3)CC2)C(=O)N1c1ccccc1 (configuration not stated) | -4.8% | 15.0% | · | 7.7%[46.1 µM] | · | 6.4%[46.1 µM] | 17.7% | ?
Cc1cc(C(=O)c2ccccc2)nc2ccccc12 | -5.0% | -4.5% | 1.6% | -7.5% | -5.1% | -6.1% | 1.3% | -28.8%
CCOC(=O)c1c(C)[nH]c(O)c1C=Nc1ccccc1 | 4.7% | -6.7% | -7.6% | 9.8% | 7.0% | -28.0% | 33.0%[activator] | 7.5%
Cc1ccnc(Nc2nc(-c3ccccc3)cs2)c1 | -3.6% | -12.3% | · | · | · | · | -12.9% | -29.8%
COc1ccc2c(COC(=O)CCS(=O)(=O)c3ccc(C)cc3)cc(=O)oc2c1 | -0.6% | · | · | 4.9% | · | 2.0% | -0.1% | 10.0%
O=C(CCC1N=C2c3ccccc3N=C(SCC(=O)NCCc3ccccc3)N2C1=O)NCc1ccc(F)cc1 (configuration not stated) | · | · | -2.2% | · | -7.7% | 1.1%[46.1 µM] | -4.7% | ·
Cc1cccc(C)c1OCCCCN1CCCCC1 | -4.0% | 9.6% | · | · | · | · | -2.0% | -7.8%
CC(=O)c1cccc(NC(=O)COC(=O)CCc2ccc(S(=O)(=O)N3CCOCC3)cc2)c1 | -0.7% | · | · | 14.1%[46.1 µM] | · | ? | -14.4% | 3.5%
Cc1ccc(C(C)C)cc1OCC(=O)NC1CCCCCCC1 | · | · | · | ? | · | ? | -7.5% | 1.3%
CC(=O)Nc1cc(NC(C)=O)cc(C(=O)OCC(=O)c2ccc3c(c2)NC(=O)CO3)c1 | 3.3% | · | · | -4.9%[46.1 µM] | · | 2.4% | -12.9% | 3.6%
COc1ccc(Cc2nc3ccccc3n2CC(=O)N/N=C/c2ccc(O)cc2)cc1OC | -10.2% | 14.2% | -3.6% | 13.2% | -5.6% | -4.4% | 0.0% | 24.7%
CCOc1cccc(C(=O)Nc2cccc(NC(=O)c3ccco3)c2)c1 | 0.4% | · | · | ? | · | -24.2% | -5.2% | -3.6%
O=C(C1CCCN(Cc2ccccc2F)C1)N1CCCC1 (configuration not stated) | 0.4% | -5.6% | · | · | · | · | -10.8% | -2.7%

The list goes on, overlapping the part above by two compounds.
SMILES | SARS PLpro yeast | NS1 function inh | Cruzain Triton | MARV entry inh | Cruzain noTriton | LASV entry inh | 2A StopGo | RE007 growth inh
CCOc1cccc(C(=O)Nc2cccc(NC(=O)c3ccco3)c2)c1 | 0.4% | · | · | ? | · | -24.2% | -5.2% | -3.6%
O=C(C1CCCN(Cc2ccccc2F)C1)N1CCCC1 (configuration not stated) | 0.4% | -5.6% | · | · | · | · | -10.8% | -2.7%
Cc1ccnc(N2C(=O)c3ccccc3C2Nc2ccc3c(c2)OCCO3)c1 (configuration not stated) | -6.5% | -33.2% | -0.9% | · | -5.3% | · | 36.1%[activator] | 2.2%
COc1ccc(CCNC(=O)COc2ccc(-c3ccc(C)cc3)cc2)cc1OC | -1.7% | -5.1% | 0.0% | 1.0% | ? | -8.2% | · | 10.1%
CCSc1nnc(NC(=O)CSc2nc(C)cc(C)n2)s1 | -8.8% | -9.2% | 1.8% | 3.9% | 0.3% | -0.7% | -22.8% | -15.1%
O=C(CCC1CCCC1)Nc1ccccc1-c1ccccc1 | -5.4% | -34.6% | -6.1% | -7.3% | -1.0% | 0.5% | -6.5% | 2.0%
O=C(c1cc(-c2ccncc2)nc2ccccc12)N1CCOCC1 | 0.6% | · | · | 21.4% | · | ? | -24.8% | 1.3%
Cc1ccc(/C=N/NC(=O)Cc2cccs2)o1 | -1.4% | 8.0% | -4.9% | 11.9% | 6.0% | 8.5% | 5.0% | -3.1%
Cc1cc(=O)oc2cc(OC(C)C(=O)N3CCCc4ccccc43)ccc12 (configuration not stated) | 2.5% | -2.4% | -9.1% | ? | -14.6% | 1.1% | -29.9% | 1.2%
c1ccc(Cc2noc(CN3CCCN(C4Cc5ccccc5C4)CC3)n2)cc1 | 0.6% | 2.4% | · | ? | · | ? | -4.0% | -6.3%
Cc1ccc2nc(-c3ccccn3)cc(C(=O)N3CCN(c4ncccn4)CC3)c2c1 | -8.6% | -14.5% | 1.6% | ? | ? | -1.0% | -22.8% | -9.3%
O=C(COC(=O)c1cnccn1)Nc1cc(S(=O)(=O)N2CCOCC2)ccc1Cl | 15.5% | · | · | 21.7% | · | -4.8% | -22.5% | 10.9%
CCOC(=O)c1cc2oc(C)cc2n1CC(=O)OC1CCCCC1 | -11.4% | -13.1% | -6.3% | ? | -1.5% | 10.0% | · | -11.0%
CC(C(=O)NC(=O)NC1CCCCC1)N1CCN(c2ccccn2)CC1 (configuration not stated) | -8.3% | -14.1% | 2.4% | 0.2%[46.1 µM] | -0.2% | -16.7% | -18.2% | -9.8%
COc1ccc(OCCOC(=O)CNC(=O)c2cccc(C)c2)cc1 | 2.9% | · | · | 8.9% | · | 12.6%[46.1 µM] | -6.9% | 13.2%
Cc1ccnc(NC(=O)c2ccc(NC(=O)CC3SC(N4CCCC4)=NC3=O)cc2)c1 (configuration not stated) | -3.7% | · | · | ? | · | 4.8% | 29.1% | 14.3%
O=C(C1CCCCC1)N1CCC(CO)(Cc2ccccc2Cl)CC1 | -0.2% | -4.2% | · | · | · | · | -12.1% | 0.7%
CCOC(=O)Cn1nc(NC(=O)c2ccc3c(c2)OCO3)cc1C | -2.1% | 6.6% | · | -6.9% | · | -13.9% | 26.2% | 0.8%
O=C(COC(=O)/C=C/C(=O)N1CCN(c2ccccc2)CC1)NCc1ccc(F)cc1 | 2.7% | · | · | 3.8%[46.1 µM] | · | -25.0% | -25.5% | -18.0%
CCC(C)Sc1nnc(CNC(=O)C23CC4CC(CC(C4)C2)C3)n1C1CCCCC1 (configuration not stated) | -7.4% | 9.8% | -4.8% | ? | ? | -22.4% | -20.4% | 21.6%
O=C(CSc1nc2ccc([N+](=O)[O-])cc2[nH]1)c1ccc2ccccc2c1 | -6.8% | 2.1% | -6.2% | -12.3% | ? | 1.9% | -11.9% | -10.5%
Cc1nc2nc(C)c(CCC(=O)O)c(C)n2n1 | -9.7% | -3.2% | 6.2% | 0.9% | -0.1% | ? | · | 3.2%
O=C(CSc1cn[nH]n1)Nc1ccccc1F | 7.6% | · | · | ? | · | 25.8% | 7.5% | 10.5%
O=C(CCC1CCCN(Cc2ccc(O)c(Cl)c2)C1)NCc1ccccc1F (configuration not stated) | -1.9% | 10.8% | · | -18.4%[46.1 µM] | · | ? | -7.7% | 6.6%
CC(=O)Nc1cccc(N/C=C(\C=O)c2nc3ccccc3o2)c1 | 7.8% | -8.0% | -9.8% | 11.9% | ? | ? | 18.9% | 4.9%
COCCCNC(=S)N(CCCO)Cc1cc2cc3c(cc2[nH]c1=O)OCO3 | -5.3% | 5.7% | · | · | · | · | 9.7% | 4.5%
CC1(C)CC(=O)C=C(NCCc2c[nH]c3ccccc23)C1 | 0.0% | 4.7% | · | 22.9%[46.1 µM] | · | ? | 19.4% | 2.7%
CC(C)Cc1nnc(NC(=O)CCC(=O)Nc2ccccc2)s1 | -0.2% | 2.8% | · | -18.1%[46.1 µM] | · | -11.7%[46.1 µM] | 21.3% | 7.4%
O=C(CSc1nnc(CCc2ccccc2)n1-c1ccc(Cl)cc1)NCc1ccccc1 | -2.0% | -2.4% | 0.0% | ? | ? | ? | -15.2% | 13.1%
Cc1nc(SCC(=O)Nc2ccc(C(=O)O)cc2)n[nH]1 | · | · | -0.5% | -11.1%[46.1 µM] | 6.8% | 0.9%[46.1 µM] | -21.4% | ·
COC(=O)C1=CN(CCCN2CCCC2=O)C=C(C(=O)OC)C1c1ccccc1C(F)(F)F | -2.2% | -9.4% | -13.9% | -6.6% | ? | ? | -20.3% | 10.7%
O=C(NC(Cc1ccc2c(c1)OCO2)C(=O)N1CCCC1C(=O)O)c1ccccc1 (configuration not stated) | ? | 0.6% | 3.3% | 9.3% | -2.1% | 4.8% | 27.0% | 7.0%
COc1ccc(C(=O)Nc2ccc(N3CCOCC3)cc2)cc1OC | -3.3% | -4.6% | -1.3% | -2.4% | -0.1% | -9.9% | 63.5%[activator] | ?
Cc1c(Cc2ccccc2)c(=O)oc2c(C)c(OCC(=O)N[C@@H](Cc3ccccc3)C(=O)O)ccc12 | -5.9% | -4.0% | · | · | · | · | -19.2% | -19.7%
